CHT block – inhibits the human high affinity choline transporter; Q9GZV3; CHT-expressing cells, membrane potential dye, choline response; active compounds read low; B-score at 10 µM; hit rate 0.86% among 310,000; AID 488975;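 active means B-score over 3 SD under the library average, and starting fluorescence ratio not unusually high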;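 further: choline stimulus applied at its EC90 after an EC20 pre-addition; B-score computed on integrated fluorescence ratio after choline addition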
Target sequence (Q9GZV3 whole entry, looked up): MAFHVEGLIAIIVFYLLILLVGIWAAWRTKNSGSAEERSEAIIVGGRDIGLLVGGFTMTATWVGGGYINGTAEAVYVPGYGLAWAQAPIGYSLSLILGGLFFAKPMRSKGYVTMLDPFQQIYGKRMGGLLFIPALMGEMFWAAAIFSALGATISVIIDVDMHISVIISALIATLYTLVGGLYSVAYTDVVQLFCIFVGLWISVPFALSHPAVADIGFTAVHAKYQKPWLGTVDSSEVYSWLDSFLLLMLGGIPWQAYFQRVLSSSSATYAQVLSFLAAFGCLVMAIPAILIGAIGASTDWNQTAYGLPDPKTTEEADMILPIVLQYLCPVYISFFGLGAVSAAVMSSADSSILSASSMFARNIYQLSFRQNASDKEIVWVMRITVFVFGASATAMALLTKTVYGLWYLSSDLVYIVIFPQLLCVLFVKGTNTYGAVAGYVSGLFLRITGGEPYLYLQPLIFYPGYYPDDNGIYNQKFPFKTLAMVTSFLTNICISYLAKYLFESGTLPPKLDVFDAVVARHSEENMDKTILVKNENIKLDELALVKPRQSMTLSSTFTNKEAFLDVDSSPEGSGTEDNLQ
Calls only; i = inactive. An excerpt, and most or all hits are left out here.

| structure | CHT block |
| --- | --- |
| Cc1ccc(CS(=O)(=O)Cc2ccc(C(=O)NCCc3ccccc3)o2)cc1 | i |
| CC1(C)Cc2ccccc2-c2nnc(SCC(=O)N3CCc4ccccc43)n21 | i |
| Cc1cc(C)cc(C(=O)NC(CC(N)=O)c2ccc(NC3CCCCCC3)c([N+](=O)[O-])c2)c1 (centres undefined) | i |
| COc1ccc(N2CCN(C(=O)c3ccc(NS(=O)(=O)c4cccs4)cc3)CC2)cc1 | i |
| COc1ccc(Cc2nnc(NN)[nH]c2=O)cc1OC | i |
| CCOC(=O)Cc1csc(NC(=O)c2ccc(S(=O)(=O)N3CCCCC3)cc2)n1 | i |
| Cc1c(Cl)cccc1NC(=O)Nc1cnccn1 | i |
| CCCCn1c(N)c(N(CC(C)C)C(=O)c2ccc(S(=O)(=O)N3CCC(C)CC3)cc2)c(=O)[nH]c1=O | i |
| COC(=O)CSc1nc(-c2ccccc2)c2c(c1C#N)CCCC2 | i |
| COc1ccc(Cn2nnnc2C(c2ccccc2Cl)N2CCC(C(N)=O)CC2)cc1 (centres undefined) | i |
| Cc1nc(SCC(=O)Nc2c(C)n(C)n(-c3ccccc3)c2=O)[nH]c(=O)c1C | i |
| CCOc1ccc2nc(NCCNC(=O)C(C)(C)C)c(C)cc2c1 | i |

Continued:
| structure | CHT block |
| --- | --- |
| Cc1ccc(-n2c(SCC(=O)NC3CCCCC3)nc3c(c2=O)SCC3)cc1 | i |
| Cc1cc(C=C2C(=O)c3ccccc3C2=O)c(C)n1C | i |
| O=C(c1cccc(S(=O)(=O)Nc2ccccc2F)c1)N1CCN(c2ccccc2F)CC1 | i |
| COC(=O)Cn1c(=NC(=O)CSCC(=O)NC2CCCCC2)sc2cc(OC)ccc21 | i |
| Cc1ccc(S(=O)(=O)NNC(=O)c2csnn2)cc1 | i |
| CC(=O)OCC(=O)Nc1ccc(C(C)=O)cc1 | i |
| CCOc1ccccc1Nc1nnc(SCC(=O)N2CCCC2)s1 | i |
| CCOc1ccccc1N(C(=O)CNC(=O)c1ccco1)C(C(=O)NC(C)(C)C)c1ccncc1 (centres undefined) | i |
| COc1cc(S(=O)(=O)Nc2ccc3cn[nH]c3c2)ccc1Cl | i |
| COc1ccc(OCCNS(=O)(=O)Cc2ccccc2)cc1 | i |
| COc1ccc(/C(O)=C2/C(=O)C(=O)N(Cc3cccnc3)C2c2ccccn2)cc1 (centres undefined) | i |
| Cc1c(Cl)cccc1-n1c(SCC(=O)N2CCC(C(=O)O)CC2)nnc1-c1ccncc1 | i |

Gathered by group, the entries above with a furan ring, fused or not.
| structure | CHT block |
| --- | --- |
| Cc1ccc(CS(=O)(=O)Cc2ccc(C(=O)NCCc3ccccc3)o2)cc1 | i |
| CCOc1ccccc1N(C(=O)CNC(=O)c1ccco1)C(C(=O)NC(C)(C)C)c1ccncc1 (centres undefined) | i |

Other structures follow.
| structure | CHT block |
| --- | --- |
| CCOc1ccc(NC(=O)c2ccc(Cl)c(NC(=O)c3ccco3)c2)cc1 | i |
| CN(Cc1cnccn1)C(=O)C1CCC(=O)N(CCc2ccccc2)C1 (centres undefined) | i |
| CCN(CC)C(=O)Cn1cc(C(=O)C(=O)NCCCN2CCCCC2)c2ccccc21 | i |
| CCn1nnnc1SCCSc1nnnn1CC | i |
| Cc1c(NC(=O)c2cc3nc(-c4ccc(Cl)cc4)cc(C(F)(F)F)n3n2)c(=O)n(-c2ccccc2)n1C | i |
| CC(C)(CNC(=O)c1sc2cc(F)ccc2c1Cl)N1CCOCC1 | i |
| CCOc1ccc(-n2ccnc(SCC(=O)Nc3cccc(OC)c3)c2=O)cc1 | i |
| Cc1cc(-c2ccccc2C(=O)O)on1 | i |
| CCN(CC)c1ccc(C2NCC(c3ccc([N+](=O)[O-])cc3)O2)cc1 (centres undefined) | i |
| C(#Cc1ccc(C#CCN2CCOCC2)cc1)CN1CCOCC1 | i |
| CCOc1c(CNCc2ccc(C(=O)O)cc2)cccc1OC | i |
| CNC(=S)N(CCO)Cc1cc2cc3c(cc2[nH]c1=O)OCO3 | i |

Following part
| structure | CHT block |
| --- | --- |
| CS(=O)(=O)Nc1cccc(-c2cn3ccccc3n2)c1 | i |
| COc1ccc(CCNC(=O)CN2CCC(C)CC2)cc1OC | i |
| Cc1ccc(S(=O)(=O)N2CCOC2CNC(=O)C(=O)NCc2ccc3c(c2)OCO3)cc1 (centres undefined) | i |
| CCC(=O)c1ccccc1OCCSc1nc(C)cc(=O)[nH]1 | i |
| Cc1sc(N/N=C/c2cccnc2)nc1-c1ccccc1 | i |
| COc1ccc(NC(=O)c2cnc(NS(=O)(=O)c3ccccc3)nc2)cc1 | i |
| CSc1nnnn1-c1ccc(C(=O)O)cc1 | i |
| CSCC[C@H](NC(=O)C1CCN(C(=O)[C@@H](N)Cc2ccccc2)CC1)C(=O)O | i |
| CCNc1nc(N)nc(Oc2ccc(C(=O)OC)cc2)n1 | i |
| COc1ccc(C(=O)N2CCNC(=O)C2CC(=O)Nc2cccc(Cl)c2Cl)cc1 (centres undefined) | i |
| COc1ccc(OC)c(/C=C/c2c([N+](=O)[O-])c(=O)n(C)c(=O)n2C)c1 | i |
| CC1CCN(CCCCOc2ccccc2Br)CC1 | i |

New compounds follow:
| structure | CHT block |
| --- | --- |
| COCCCNC(=O)c1ccc(N(C)S(=O)(=O)c2ccc(OC)cc2)cc1 | i |
| Cc1ccc(C)c(NC(=S)NCc2cccn2C)c1 | i |
| O=C(Nc1ccc(Oc2ccccc2)nc1)C1CCCCN1Cc1ccco1 (centres undefined) | i |
| O=C(c1ccco1)N1CCN(C(=S)Nc2cc(F)cc(F)c2)CC1 | i |
| C=CCn1cccc(C(=O)Nc2cc(OC)ccc2OC)c1=O | i |
| Cc1ccc(S(=O)(=O)NC(CC(=O)O)c2ccccc2)cc1 (centres undefined) | i |
| Cc1ccc(S(=O)(=O)N2CCOC2CNC(=O)C(=O)NCc2ccccc2)cc1 (centres undefined) | i |
| COc1ccc(OC)c(C2C3=C(CCCC3=O)Nc3c2c(=O)n(C)c(=O)n3C)c1 (centres undefined) | i |
| CC(C)CCNC(=O)C1CCCN1C(=O)NC1CCCCC1 (centres undefined) | i |
| CCc1noc(C)c1C(=O)Nc1ccccc1C(C)(C)C | i |
| CCOc1ccccc1NC(=O)NC1(C(=O)N2CCOCC2)CCCCC1 | i |
| CCCOc1ccc(C(=O)c2nc3c(n2O)CCCCC3)cc1 | i |

Remaining list, next part:
| structure | CHT block |
| --- | --- |
| COc1ccc(OC)c(NC(=O)CSc2nc3ccccc3cc2Cc2ccccc2)c1 | i |
| O=C(COc1cc(Cl)c(Cl)cc1Cl)NCCN1CCOCC1 | i |
| COc1cc(C(c2nnnn2C(C)(C)C)N2CCN(C)CC2)cc(OC)c1OC (centres undefined) | i |
| CS(=O)(=O)N1CCN(C(=O)c2cc(-c3cccnc3)nc3ccc(Cl)cc23)CC1 | i |
| CC(C)[C@H](NC(=O)c1ccccc1)C(=O)OCc1nnc(-c2ccccc2)o1 | i |
| CC1(C)CC(=O)C(C2NCCc3ccccc32)=C(O)C1 (centres undefined) | i |
| CCc1ccc(NC(=O)CC2NCCNC2=O)cc1 (centres undefined) | i |
| Cc1ccccc1N(C(=O)Cc1cccs1)C(C(=O)NCC1CCCO1)c1cccnc1 (centres undefined) | i |
| CN(C)c1nc(N)nc(CSc2nnnn2-c2ccc(C(=O)O)cc2)n1 | i |
| COc1ccc(OC)c(C(c2nnnn2CCC(C)C)N2CCN(C(=O)c3ccco3)CC2)c1 (centres undefined) | i |
| O=C(C1CCN(Cc2ccc(Cl)cc2)CC1)N1CCN(Cc2ccc3c(c2)OCO3)CC1 | i |
| O=[N+]([O-])c1c(Nc2ccccc2)ccc2nonc12 | i |

Next section.
| structure | CHT block |
| --- | --- |
| O=C(CSc1nnc(-c2ccccc2Br)o1)Nc1cccc2ccccc12 | i |
| C/C=C(\C)C(=O)Nc1cccc(C2=NOC3(C2)C[C@H](C(N)=O)N(C(=O)CC#N)C3)c1 (some centres undefined) | i |
| O=C(N/N=C/c1ccccc1Br)C1CC1 | i |
| CN(C)C(=O)CSc1nnc(-c2ccc(F)cc2)c2ccccc12 | i |
| COC(=O)Cn1cnc2ccccc2c1=O | i |
| COc1cccc(N2CCN(C3CC(=O)N(c4ccc(Cl)c(Cl)c4)C3=O)CC2)c1 (centres undefined) | i |
| CSc1cc(C)c(OCC(=O)Nc2ccc(NC(C)=O)cc2)c(C)c1 | i |
| O=C(OCCOc1ccc(Br)cc1)c1ccc(Cl)nc1 | i |
| Cc1ccc(NC(=O)CN(C)CC(=O)Nc2sc3c(c2C(N)=O)CCC3)cc1 | i |
| COCC(=O)OCn1nnc2ccccc2c1=O | i |
| O=C(CCn1c(=S)[nH]c2ccccc2c1=O)NCCSCc1ccccc1 | i |
| CO/N=C(/CNC(=O)c1cccc(Cl)c1)c1ccc(Cl)cc1 | i |

Later entries
compound | CHT block
C1CCN(c2nc(N3CCCCC3)nc(N3CCNCC3)n2)CC1 | i
COc1cc(NC(=S)Nc2ccccn2)cc(OC)c1OC | i
CCc1ccc(C(=O)COC(=O)CNC(=O)COc2ccccc2)cc1 | i
CSCCC(C(=O)NCc1cccs1)N1C(=O)c2ccccc2C1=O (centres undefined) | i
Cc1nn(C)c(C)c1S(=O)(=O)N(CC(=O)Nc1nccs1)c1ccc(C(C)C)cc1 | i
CC1=NN(c2ccc(C)cc2)C(=O)/C1=C\c1ccc(Br)s1 | i
COc1ccc(CN(CC2CCCO2)C(=O)CN2C(=O)C(C)Oc3ccc(C)cc32)cc1OC (centres undefined) | i
CCN(CC(=O)Nc1ccc(NC(C)=O)cc1)C(=O)CCCc1nc2ccccc2c(=O)[nH]1 | i
CCN(CC)c1ccc(S(=O)(=O)N2CCCCC2)cc1NC(=O)C1CCC1 | i
CN1C(=O)/C(=C/c2cc(C(C)(C)C)c(O)c(C(C)(C)C)c2)NC1=S | i
COc1cc(/C=C/C(=O)OCC(=O)N2CCCCCC2)ccc1OCC#N | i
CCOC(=O)c1csc(-n2nc(C)cc2C(F)(F)F)n1 | i
CCCC[C@@H]1C[C@H]1[C@@H](NC(=O)c1ccccc1)c1ccccc1C(F)(F)F | i
COc1ccc(/C=N/NC(=O)CC(=O)N/N=C/c2ccc(OC)cc2)cc1 | i
Cc1cc(C)c(C)c(S(=O)(=O)N2CCCN(C)CC2)c1C | i
CCOC(=O)C1CCN(C(=O)CSc2cc(=O)n(CC)c3ccccc23)CC1 | i
COc1ccc(CC(=O)Nc2ccc(N3CCCCC3)cc2)cc1 | i
CCCCn1c(SCC(=O)NCc2ccc(OC)c(C(=O)O)c2)nc2cc(S(N)(=O)=O)ccc21 | i
O=C(O)c1ccc(CSc2n[nH]c(-c3ccco3)n2)cc1 | i
COc1ccc(NC(=O)CSc2ncnc3c2cnn3Cc2ccccc2)cc1OC | i
Cc1ccc(-c2nc(SCC(=O)Nc3cc(S(=O)(=O)N4CCCCC4)ccc3Cl)n[nH]2)cc1 | i
CCc1ccc(NC(=O)CCc2nc3cccnc3n2Cc2ccc(OC)cc2)cc1 | i
CCOC(=O)C1CCN(Cc2cccc(OC)c2)CC1 | i
Cn1c(=O)c2sccc2n(CC(=O)NCCC2=CCCCC2)c1=O | i
COC(=O)c1ccccc1SCc1csc(C)n1 | i

Additional entries follow.
compound | CHT block
CCc1nc(Nc2cccc(F)c2)c2oc3ccccc3c2n1 | i
O=C(C(=O)N1CCOCC1)c1cn(CCOc2ccccc2)c2ccccc12 | i
COc1ccc(CCN2CNc3c(c(=O)n(C)c(=O)n3C)C2)cc1OC | i
Cc1ccc(NC(=O)C2CCC(CNc3c(N4CCC(C)CC4)c(=O)c3=O)CC2)cc1F (centres undefined) | i
O=C(NCc1ccccc1)c1ccccc1CO | i
Cc1cccn2c(=O)c3cc(C#N)c(=O)n(CCCN4CCOCC4)c3nc12 | i
CCOC(=O)N1CCC(NC(=O)C2CCN(S(=O)(=O)c3ccc4c(c3)oc(=O)n4C)CC2)CC1 | i
CN(CC(=O)Nc1ccccc1Cl)C(=O)CN1C(=O)C2CCCCC2C1=O (centres undefined) | i
O=C(COc1ccc(-c2nnco2)cc1)Nc1c(F)cccc1F | i
CC(=O)Nc1ccccc1C(=O)C(=O)Nc1ccccc1 | i
Cc1cccc(OCc2nnc(NC(=O)Cc3cccs3)s2)c1 | i
CCCn1nnnc1SCC(=O)NC1CCCC1 | i
CCN(CC)S(=O)(=O)c1cccc(C(=O)N2CC(O)CC2C(=O)O)c1 (centres undefined) | i
Cc1ccc(Oc2ncccc2/C=N/O)cc1 | i
O=C(O)CCCCCCCCc1cn(CN2C(=O)c3ccccc3C2=O)nn1 | i
CC(C)(C)OC(=O)N[C@@H](COCc1ccccc1)C(=O)N[C@@H](CO)[C@H](O)[C@@H]1C[C@@H]1C(=O)NC1CC1 | i
O=C(O)CC(NC(=O)Cc1ccccc1)c1ccccc1 (centres undefined) | i
Cc1cc(C)c(S(=O)(=O)c2ccccc2)c(OC(=O)c2c(F)cccc2Cl)n1 | i
COC(=O)c1ccccc1N=Nc1c(C)noc1C | i
COc1ccc(CC(=O)Oc2ccc(Cl)cc2Br)cc1S(=O)(=O)N1CCOCC1 | i
Cn1c(=O)cc(SCC(=O)Nc2cccnc2)c2ccccc21 | i
O=C(NCC(c1ccco1)N1CCOCC1)c1ccccc1 (centres undefined) | i
CCOc1ccc(NC(=O)CCC(=O)NNC(=O)c2ccco2)cc1 | i
O=C(CCCl)Nc1nc2c(s1)CCc1ccccc1-2 | i
COC(=O)/C=c1/s/c(=C(\C#N)C(=O)NCc2ccco2)n(-c2ccccc2)c1=O | i
COc1ccc(CNC(=O)C(C)c2ccc([N+](=O)[O-])cc2)cc1 (centres undefined) | i
CC(=O)N(Cc1ccc(Br)cc1)c1ccccc1C(=O)O | i
CC(=O)Nc1ccc(NC(=O)CSc2ccc(C)cc2)cc1 | i

Six compounds out of the list, ordered by count of non-hydrogen atoms, rising.
compound | CHT block
CC(=O)Nc1ccccc1C(=O)C(=O)Nc1ccccc1 | i
O=C(NCC(c1ccco1)N1CCOCC1)c1ccccc1 (centres undefined) | i
COc1ccc(CNC(=O)C(C)c2ccc([N+](=O)[O-])cc2)cc1 (centres undefined) | i
Cc1cc(C)c(S(=O)(=O)c2ccccc2)c(OC(=O)c2c(F)cccc2Cl)n1 | i
Cc1ccc(NC(=O)C2CCC(CNc3c(N4CCC(C)CC4)c(=O)c3=O)CC2)cc1F (centres undefined) | i
CCOC(=O)N1CCC(NC(=O)C2CCN(S(=O)(=O)c3ccc4c(c3)oc(=O)n4C)CC2)CC1 | i
